Source: PubChem BioAssay
MT1-MMP act inh: blockers of MT1-MMP proenzyme processing, primary screen, HT1080 RFP-PRO-GFP cells, GFP/RFP fluorescence. actives 0.061% (n = 360,000). AID 651647, 2012. GFP/RFP ratio fluorescence, overnight; percent of plate control window, DMSO zero. Matrix metalloproteinase-14 (Homo sapiens), P50281. GFP/RFP ratio change, % at 20 µM;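 active means GFP/RFP ratio change of at least 30% with cell ATP level not reduced by more than half and red fluorescence within 50% of control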; further: strong numbers were not always called active
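Compound: 20 µM single dose, 1% DMSO / System: HT1080 RFP-PRO-GFP cells / Controls: DMSO and RFP-L50D-GFP cell wells / Read-out basis: GFP/RFP fluorescence ratio / Schedule: overnight compound exposure at 37 °C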
CSC inhib: cancer stem cell viability inhibitors, primary screen, luminescence. cancer stem cell-like cells viability. inhibition, % at 7.5 µM. actives 1.1% (n = 300,000). AID 2717, 2010;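 active means mean at 75% or more and at least half the replicates too; inconclusive means mean and replicates disagree; tested in HMLE shEcad cells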;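 further: 0% = median of negative and 100% = median of positive control wells; the first replicate is given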
Rce1 inhib: yeast Rce1p protease inhibitors, primary screen, biochemical, fluorescence, cell-free homogeneous | AID 2563, 2010 | actives 0.27% (n = 290,000) | CAAX prenyl protease 2 (Saccharomyces cerevisiae (strain ATCC 204508 / S288c)), Q03530 | calls only | yeast membranes, quenched prenylated peptide cleavage fluorescence;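 active means fall in fluorescence gain of 50% or more versus controls, with final raw signal at or below 3038400; inconclusive means same 50% fall but final raw signal above 3038400; inactive means fall in fluorescence gain under 50%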;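 further: plate controls were neutral control wells for no effect and wells lacking membranes for full effect; tested at 10 µM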
Target sequence (Q03530 whole entry, looked up): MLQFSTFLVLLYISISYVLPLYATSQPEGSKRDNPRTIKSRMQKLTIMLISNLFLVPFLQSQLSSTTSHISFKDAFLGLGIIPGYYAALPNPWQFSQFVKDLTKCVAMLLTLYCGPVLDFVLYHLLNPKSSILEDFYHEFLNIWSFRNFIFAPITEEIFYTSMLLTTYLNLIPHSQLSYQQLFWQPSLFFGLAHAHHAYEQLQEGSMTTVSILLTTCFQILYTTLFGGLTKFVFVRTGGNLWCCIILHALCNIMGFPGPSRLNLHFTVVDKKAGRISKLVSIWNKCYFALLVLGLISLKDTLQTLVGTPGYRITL
eIF4H FP inh: human eIF4H binding inhibitors, primary screen, translation initiation inhibitor project, biochemical, uHTS, fluorescence polarization. AID 2012, 2009. eIF4H fluorescence polarization binding assay. Eukaryotic translation initiation factor 4H (Homo sapiens), Q15056. actives 0.94% (n = 290,000). inhibition, % at 35 µM;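 active means 50% or more with normal probe brightness, or confirmed in later tests; inconclusive means above 50% with abnormal brightness, or retests that disagree; inactive means below 50% or failed in later tests; about a fifth of its hits are not listed in these tables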;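 further: calls also rest on retests at 20 µM and on dose response follow-up; 0% = protein and probe with vehicle and 100% = probe without protein; strong numbers were not always called active; many hits fall short of the cut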
HIV Env fusion: inhibitors of HIV-1 Env-driven cell-cell fusion, primary screen, HeLa-JRFL effector, CEM21 target cells, luciferase; inhibition, % at 12.3 µM; actives 1.1% (n = 360,000); AID 651610, 2012;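 active means mean replicate inhibition score of at least 50 and every replicate individually at or above 50; inconclusive means only one of the two criteria met; inactive means mean below 50 and not all replicates reaching 50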;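 further: 0% = plate neutral controls and 100% = maraviroc near 300 nM; one replicate is shown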
PABP polyA inh: PABP poly(A) RNA binding inhibitors, primary screen, biochemical, fluorescence polarization, uHTS. inhibition, % at 35 µM. Polyadenylate-binding protein 1 (Homo sapiens), P11940. actives 1% (n = 290,000);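 active means 50% or more with normal probe brightness, or confirmed in later tests; inconclusive means above 50% with abnormal brightness, or retests that disagree; inactive means below 50% or failed in later tests; about a fifth of its hits are not listed in these tables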;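 further: calls also rest on retests at 20 µM and on dose response follow-up; controls were probe without protein and protein plus probe with vehicle; some compounds called inactive have numbers as strong as hits; many hits fall short of the cut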
Yeast UUG start: modulators of yeast start codon fidelity, primary screen, whole organism, S. cerevisiae, single point, plate reader. S. cerevisiae UUG-firefly luciferase reporter, luminescence/redox ratio. activity score, % at 18.7 µM. actives 0.13% (n = 350,000). AID 602363, 2012;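 active means replicate mean at a twofold rise or more, about +100% in these data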;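 further: firefly luciferase made from a UUG start codon reports start codon fidelity; reporter light over untreated wells divided by growth signal over untreated wells; some hits fall short of that in this replicate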
eIF4H FP inh retest: second read-out of eIF4H FP inh, no call of its own (marks repeat the call); inhibition, %; compound at 20 µM; confirmation average;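 mean of two retest wells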
PABP polyA inh retest: recorded beside PABP polyA inh, whose call it bears; inhibition, %; compound at 20 µM; confirmation repeats;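 mean of two retest wells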
MT1-MMP act inh RFP: recorded beside MT1-MMP act inh, whose call it bears; RFP signal change, %; measured here: RFP expression control read;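 0 = vehicle wells; hits needed this value within 50% of zero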
* marks the source's active call; other numbers are inactive results; i = inactive; ? = inconclusive; . = not tested or not shown; & = joins results of further samples; [ ] = remark or other dose. The list is partial; rates above refer to the full screens.

SMILES | MT1-MMP act inh | MT1-MMP act inh RFP | CSC inhib | Rce1 inhib | eIF4H FP inh | HIV Env fusion | PABP polyA inh | Yeast UUG start | others
CC(C)CCOP(N)(=O)Oc1ccccc1 (configuration not stated) | 4 | -1 | 10 | i | 0 | -10 | 1 | -7
CC(C)(C)n1nnnc1C(C1CC1)N1CCC2(CC1)C(=O)NCN2c1ccccc1 (configuration not stated) | 7 | 0 | . | . | . | 4 | . | 6
O=c1[nH]c2ccccc2n1C1CCN(C(c2cccc3ccccc23)c2nnnn2-c2ccc3c(c2)OCCO3)CC1 (configuration not stated) | -11 | 0 | . | . | . | 32 | . | -18
Cc1cc(C)c(NC2=NCCS2)cc1C | 3 | 3 | . | . | . | -1 | . | -15
COc1cc2c(cc1OC)-c1c(OC)c(OC)cc3c1[C@H](C2)N(C)CC3 | 50* | 41* | -9 | i | 21 | -166 | -1 | -18
O=[N+]([O-])c1ccc(N2CCOCC2)c2ccncc12 | -7 | -2 | . | i | -1 | 17 | 2 | .
Cc1nn(Cc2ccc(Cl)cc2Cl)c(Cl)c1C(=O)NC1CCCc2ccccc21 (configuration not stated) | -18 | -21 | 13 | i | 1 | 13 | -11 | .
COc1ccc(C(c2nnnn2Cc2ccccc2)N2CCC3(CC2)C(=O)NCN3c2ccccc2)cc1 (configuration not stated) | 3 | -8 | . | . | . | -230 | . | 0
C[C@]12CCC3C(CC[C@H]4C[C@@H](O)CC[C@]34C)C1C[C@@H](O)[C@]2(C)O (some centres not stated) | -1 | -1 | 6 | . | . | -13 | . | 0
COc1ccc(CCNCc2ccc(OC)c(OC)c2OC)cc1 | 14 | 2 | 3 | i | -1 | . | 6 | -23
CCC(C)n1c(O)c(C=NCC2CCCO2)c(=O)[nH]c1=S (configuration not stated) | 3 | 1 | -9 | i | 2 | -8 | -8 | .
Cc1c(C=C2C(=O)N(C)C(=S)N(C)C2=O)c2ccccc2n1CC(=O)NCC1CCCO1 (configuration not stated) | 6 | 18 | -4 | i | 5 | -7 | 0 | -3
CCCCn1c(O)c(C(C)=Nc2cccc(C(=O)O)c2)c(=O)[nH]c1=O | 2 | 3 | -4 | . | -15 | 15 | 1 | -2
O=c1[nH]c(=O)n(-c2cccc(F)c2)c(O)c1/C=C1\C=Nc2ccccc21 | -9 | -2 | -1 | i | ? | -18 | ? | -11
Cc1ccc(OC(=O)N(C)C[C@@H]2OCc3cnnn3CCCC(=O)N([C@H](C)CO)C[C@H]2C)cc1 | 3 | -1 | . | . | . | 13 | . | -8&10
CC1(C)C(C(=O)N2CCN(c3ccc(Cl)cc3)CC2)C1(C)C | -1 | -6 | 0 | i | -5 | -16 | 5 | -9
Cc1ccsc1C(=O)C1CCCN(Cc2cccc(-n3cccn3)c2)C1 (configuration not stated) | -3 | -4 | 1 | i | -8 | 2 | -3 | -13
O=C1NC(=O)N(c2ccccc2F)C(=O)/C1=C/c1ccc(Oc2ccc([N+](=O)[O-])cn2)cc1 | 1 | 4 | -14 | i | 0 | -32 | 11 | .
O=C1c2ccccc2C2(c3ccc(Cl)cc3)NCCN12 (configuration not stated) | 3 | -1 | -1 | i | -1 | . | -1 | -6
Cc1ccc2c(c1)C1CN(C)CCC1N2S(=O)(=O)c1ccccc1 (configuration not stated) | -9 | 0 | -14 | i | -6 | . | -6 | -23
CC[C@]12C=CCN3CCC4(c5cc(Br)c(OC)cc5N(C)C4[C@@](O)(C(=O)OC)[C@@H]1OC(C)=O)C32 (some centres not stated) | -13 | 3 | -4 | i | 78 | -4 | 3 | 1 | eIF4H FP inh retest=-7;PABP polyA inh retest=3
CCS(=O)(=O)Nc1cccc(C(=C2CCCCC2)c2cnc[nH]2)c1 | 0 | 0 | -3 | . | . | -5 | . | -10
Cc1cc(OC(C)C(=O)N[C@H](C(=O)O)c2ccccc2)c2c3c(c(=O)oc2c1)CCC3 (some centres not stated) | -2 | 1 | -10 | i | -7 | . | -6 | -1
CCOC(=O)C1CN(C)CCC1=O (configuration not stated) | 0 | -4 | -13 | i | 1 | . | -9 | 2
O=C(Cn1cnc2sc3c(c2c1=O)CCCC3)NCCCC(=O)N1CCC2(CC1)OCCO2 | 3 | 5 | -6 | i | -15 | -32 | -3 | -10
Further compounds follow:
SMILES | MT1-MMP act inh | MT1-MMP act inh RFP | CSC inhib | Rce1 inhib | eIF4H FP inh | HIV Env fusion | PABP polyA inh | Yeast UUG start | others
N[C@@H]1C[C@H]1c1ccccc1 | 1 | 3 | -2 | . | . | -31 | . | -13
O=C(COC(=O)c1ccccc1)Nc1ccc(Cl)cc1C(=O)c1ccccc1 | -3 | -1 | -10 | i | 3 | -19 | 6 | -11
Cc1ccc(OC(=O)N(C)C[C@H]2OCc3cnnn3CCCC(=O)N([C@H](C)CO)C[C@@H]2C)cc1 | 1 | -1 | . | . | . | 9[16.7 µM] | . | -10&10
Cc1ncoc1C(=O)NCC1=C(c2ccc(S(C)(=O)=O)cc2)C[C@@H]2CC[C@H]1N2Cc1ccco1 | -1 | 5 | . | . | . | 21 | . | -8
Fc1ccccc1CNCCc1c[nH]c2ccccc12 | -5 | 3 | -6 | i | -4 | 19 | 3 | -15
COC(=O)C1=C(c2ccc(F)cc2OCc2ccccc2)C[C@@H]2CC[C@H]1N2C(=O)NCCc1ccc(F)cc1 | -12 | -5 | 19 | . | . | 42 | . | -2
CC(C)C/C(=N/O)c1cn(C)c2ccccc12 | 2 | -2 | . | i | -3 | -7 | -10 | .
CCOc1ccc(N2C(=O)/C(=C/c3ccco3)C(=O)NC2=S)cc1 | -1 | -8 | -13 | i | 23 | . | 11 | -16
CC(Cc1ccccc1)NC(=O)/C=C/C(=O)O (configuration not stated) | 0 | 2 | -5 | i | -6 | -9 | -6 | .
C=CCn1c(O)c(C(C)=Nc2ccc(C(=O)O)cc2)c(=O)[nH]c1=O | -14 | 10 | -17 | i | -15 | 6 | -7 | -9
O=C1CN(O)C(c2ccccc2)=c2cc(Cl)ccc2=N1 | -1 | -2 | -20 | i | -6 | -19 | 2 | 6
c1cncc(CNC2=NCCCCC2)c1 | 2 | 1 | 8 | i | 5 | 6 | -4 | -12
O=C(O)Cn1cc(/C=C2\C(=O)NC(=O)N(c3ccc(Cl)cc3)C2=O)c2ccccc21 | -25 | 14 | -4 | i | ? | 17 | ? | -1
O=C(CCCN1CCC(n2c(=O)[nH]c3ccccc32)CC1)c1ccc(F)cc1 | 2 | 1 | -6 | . | . | -10 | . | -16
Cc1ccc(S(=O)(=O)N2Cc3cc(N4CCOCC4)ccc3-n3nncc3C2)cc1 | 2 | 3 | . | . | . | 6 | . | 3
Cc1cc(OC(=O)CCNC(=O)OC(C)(C)C)c2c3c(c(=O)oc2c1)CCC3 | -1 | -15 | -4 | i | 3 | -20 | -4 | -10
Cc1ccc(-n2c(C)nc3ccccc3c2=O)cc1C | -3 | 0 | -19 | i | -16 | -6 | 12 | .
C=CCN1C(=O)NC(=O)/C(=C/C=C/c2ccccc2)C1=O | -15 | 16 | . | i | 21 | -220 | 15 | 9
COc1ccc(-c2cc(C(F)(F)F)n3nc(C(=O)N4CCC5(CC4)OCCO5)cc3n2)cc1OC | 6 | 6 | -6 | i | -7 | . | -5 | -15
O=c1[nH]c2ccccc2n1C1CCN(C(CCc2ccccc2)c2nnnn2Cc2ccccc2)CC1 (configuration not stated) | -18 | -38 | . | . | . | 66* | . | -14
CCC(=NCCc1c[nH]c2ccccc12)c1c(O)n(-c2ccc(C)cc2)c(=O)[nH]c1=O | -2 | -4 | -20 | i | 0 | 8 | 2 | .
Cn1c(C(=O)N2CCC(C(=O)N3CCC4(CC3)OCCO4)CC2)cc2sccc21 | -1 | -1 | -18 | i | 3 | . | 4 | 3
COc1ccc(-c2ccc3c(c2)CN(c2cccc(Cl)c2)Cc2cnnn2-3)cc1 | 7 | -9 | . | . | . | 3 | . | 13
NCCc1ccc(O)cc1 | 2 | 3 | . | i | -5 | . | -5 | 4
c1ccc(-n2ccnc2)cc1 | 3 | 3 | -12 | i | 2 | . | 10 | -12
The results go on:
SMILES | MT1-MMP act inh | MT1-MMP act inh RFP | CSC inhib | Rce1 inhib | eIF4H FP inh | HIV Env fusion | PABP polyA inh | Yeast UUG start | others
c1ccc2c(c1)OCC(C1=NCCN1)O2 (configuration not stated) | 0 | 3 | 5 | i | 14 | 8 | 11 | -23
CN1C(=O)C(Cc2ccsc2)C(=O)N(C)C1=O | 2 | 9 | 1 | i | 11 | . | 8 | -1
CC(=NCc1ccc2c(c1)OCO2)c1c(O)[nH]c(=O)[nH]c1=O | -3 | -1 | 27 | i | 8 | . | 4 | -18
CCc1ccc(CNCCc2ccccc2F)cc1 | -5 | -5 | . | i | 4 | 11 | 8 | .
CCCCn1c(N)c(C(=O)NCCN2CCOCC2)c2nc3ccccc3nc21 | -5 | 8 | 14 | i | -2 | . | -3 | -13
O=C1NC(=O)N(Cc2ccc(F)cc2)C(=O)/C1=C\C=C\c1ccco1 | -57 | 40 | 13 | i | ? | -229 | ? | -11
COP(=O)(NS(=O)(=O)c1ccccc1)OC | 4 | 8 | -13 | i | -4 | -2 | 5 | .
COc1ccc(C(=O)CC2(CC(=O)c3ccc(OC)cc3)C(=O)N(C)C(=O)N(C)C2=O)cc1 | 0 | 1 | 0 | i | -5 | -59 | 5 | 19
Cc1ccc(CN2CC3CC(C2)c2cccc(=O)n2C3)cc1 (configuration not stated) | -7 | -4 | -13 | i | 12 | . | 5 | -16
CCCCOC(=O)c1ccccc1C(=O)OCCCC | 0 | 0 | -3 | . | . | . | . | -22
Cc1oc(-c2ccccc2Cl)nc1CN1C(=O)CN=C(c2ccccc2)c2ccccc21 | -5 | -6 | 14 | i | -4 | 15 | -1 | -6
Cc1sc2ccccc2c1CC1=NCCN1 | 5 | 4 | -10 | . | . | . | . | -13
CCCCc1ccc(C(=O)O)nc1 | 2 | 4 | -1 | . | . | 2 | . | -8
O=c1c2ccccc2nc(-c2cccs2)n1-c1cnccn1 | 1 | -2 | -7 | i | 9 | . | 7 | -7
CN1OCC2Cn3c(nc4ccccc43)C21 (configuration not stated) | -3 | 2 | -6 | . | 5 | -40 | 12 | -8
CC(C)CN1Cc2ccccc2-n2nncc2C1 | 1 | 2 | . | . | . | -13 | . | -4
CC1CC(OC(=O)c2ccccc2)CC(C)N1C (configuration not stated) | 2 | 4 | -17 | i | 3 | 4 | 91 | . | eIF4H FP inh retest=48;PABP polyA inh retest=49

Looked up by compound from above:
SMILES | MT1-MMP act inh | MT1-MMP act inh RFP | CSC inhib | Rce1 inhib | eIF4H FP inh | HIV Env fusion | PABP polyA inh | Yeast UUG start | others
c1ccc2c(c1)OCC(C1=NCCN1)O2 (configuration not stated) | 0 | 3 | 5 | i | 14 | 8 | 11 | -23
O=c1c2ccccc2nc(-c2cccs2)n1-c1cnccn1 | 1 | -2 | -7 | i | 9 | . | 7 | -7
CN1C(=O)C(Cc2ccsc2)C(=O)N(C)C1=O | 2 | 9 | 1 | i | 11 | . | 8 | -1
